# Rango release inh – inhibition of RanGTP-driven Rango-importin beta dissociation; O95149+P62826; Biochemical FRET Rango-importin beta, RanGTP-induced dissociation; Potency, µM (doses to about 46.1 µM), inactives show top-dose activity change, negative = inhibition; 340,000 tested, 0.071% active; active means falling FRET ratio curve, often poorly fitted, with flat reads before Ran was added; inconclusive means other falling curves, or compound fluorescence or quenching; inactive means flat or rising ratio curve;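 note: potency is the fitted concentration of half-maximal effect; % of control where 0% means no effect; nearly all actives have a fitted effect of over 45% in size; -100% = wells without RanGTP and RCC1; the record marks most hits as doubtful in a second field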
#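 Rango FRET biosensor (snurportin-1 IBB flanked by N-terminal EYFP and C-terminal CFP10) at 0.1 uM, with 0.25 uM importin beta in PBS, 1mM DTT, 0.02% Tween-20, 0.1% BSA. 0.6 uM Ran, 2mM GTP and 0.2 uM RCC1 were then added for 45 min at room temperature. Inhibition read as loss of FRET rise.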
# Rango-impB inh – prevents formation of the Rango-importin beta complex; Potency, µM (top dose mostly 92.2 µM), without a hit: at the top dose inhibition of complex formation; 340,000 tested, 0.031% active; Q14974; AID 540263; Rango CFP/YFP FRET sensor + importin beta, 45 min; active = rising FRET ratio curve, often small or poorly fitted; inconclusive = mostly compound fluorescence or quenching in the first reads; inactive = flat curves in all reads;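 note: potency is the fitted concentration of half-maximal effect; 0% = DMSO wells and 100% = buffer wells lacking importin beta; nearly all actives have a fitted effect of over 15% in size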
# Target sequence (Q14974 whole entry, looked up): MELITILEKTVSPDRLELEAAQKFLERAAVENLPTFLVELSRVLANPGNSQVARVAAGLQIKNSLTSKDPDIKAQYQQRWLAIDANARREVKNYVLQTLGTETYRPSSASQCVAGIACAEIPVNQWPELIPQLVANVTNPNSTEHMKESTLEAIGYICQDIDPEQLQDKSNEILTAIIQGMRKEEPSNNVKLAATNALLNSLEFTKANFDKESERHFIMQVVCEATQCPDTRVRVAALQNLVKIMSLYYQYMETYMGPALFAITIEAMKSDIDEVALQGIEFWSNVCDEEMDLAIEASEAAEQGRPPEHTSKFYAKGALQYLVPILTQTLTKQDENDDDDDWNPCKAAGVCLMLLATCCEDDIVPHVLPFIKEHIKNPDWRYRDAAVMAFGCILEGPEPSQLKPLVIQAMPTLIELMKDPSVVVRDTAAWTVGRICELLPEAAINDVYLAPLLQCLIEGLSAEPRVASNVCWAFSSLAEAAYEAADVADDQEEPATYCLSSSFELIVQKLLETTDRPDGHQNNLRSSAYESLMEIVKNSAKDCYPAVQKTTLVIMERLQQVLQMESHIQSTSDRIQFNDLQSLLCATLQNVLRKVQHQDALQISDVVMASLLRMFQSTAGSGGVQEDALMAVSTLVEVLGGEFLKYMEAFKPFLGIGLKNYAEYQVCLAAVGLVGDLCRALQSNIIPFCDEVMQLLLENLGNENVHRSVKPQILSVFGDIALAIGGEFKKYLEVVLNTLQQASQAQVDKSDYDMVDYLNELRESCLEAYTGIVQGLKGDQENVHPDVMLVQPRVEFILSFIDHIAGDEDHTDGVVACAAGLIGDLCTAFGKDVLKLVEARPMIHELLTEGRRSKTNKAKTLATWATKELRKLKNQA
#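 Inhibition scored from the CFP 486 nm/YFP 530 nm FRET ratio 45 min after adding 0.125 microM importin beta to 50 nM Rango biosensor preincubated 5 min with compound (room temperature, PBS with DTT, Tween-20, BSA). No-importin wells as positive control.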
# miR-21 FLuc – raises the signal of a miR-21 reporter; AID 2288; 340,000 tested, under 10 active; Potency, µM (top dose mostly 38.3 µM), for the others: at the top dose reporter change, positive = more light; HeLa miR-21 FLuc reporter, luciferase, 48 h; active = well fitted rising curve with a large enough effect; inconclusive = small, poorly fitted or top-dose-only effect; inactive = no such curve, though single readings can be large or run the other way;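 note: % of control where 0% means no effect; miR-21 action dims this reporter so a rising signal means less miR-21 action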
#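 HeLa cells endogenously expressing miR-21, stably carrying CMV-driven firefly luciferase with a downstream miR-21 binding site, 2000 cells/well. Titrations up to approximately 40 uM, 48 hours; luciferase luminescence read.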
# GLA inh pH 4.5 – alpha-galactosidase A (human) inhibition, pH 4.5 | P06280 | purified enzyme, 4-MU-alpha-Gal fluorescence, pH 4.5 | activity change, negative = inhibition, % at 105 µM | 230,000 tested, under 10 active | AID 1467; inconclusive = small, poorly fitted or top-dose-only inhibition, or a rising curve; inactive = flat fitted curve, though single readings scatter; no compound was filed as active;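 note: 0% = full activity with enzyme and -100% = basal without enzyme; dose as in the result columns while the protocol names 77 µM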
# Numbers without * were called inactive; ? = inconclusive; . = not tested or not shown; & = joins results of further samples. An excerpt, so the mix of outcomes need not match the whole.
GLA inh pH 4.5,Rango-impB inh,Rango release inh,smiles,miR-21 FLuc
-2,6.0%,-6%,C/C(Cl)=C/Cn1c(SCCN2CCOCC2)nc2c1c(=O)[nH]c(=O)n2C,-5%
.,0.0%,-10%,CSCCC(NC(=O)/C(=C/c1ccco1)NC(=O)c1ccc(Br)o1)C(=O)O (configuration not stated),-7%
.,-2.5%,7%,COc1ccccc1CNC(=O)CCCn1nc(C)n2ccnc2c1=O,0%
1,0.3%,5%,COc1ccccc1C(=O)COC(=O)c1ccccc1OCC(=O)Nc1ccc(SC(F)F)cc1,-2%
-2,1.6%,-8%,O=C(NCCc1ccccc1)C(c1ccncc1)N(C(=O)c1csnn1)C1CC1 (configuration not stated),-4%
.,1.4%,-2%,COc1ccc(CN(C)C(=O)c2cccc(NS(=O)(=O)c3ccccc3)c2)cc1F,-8%
.,0.2%,-11%,O=C(O)c1ccc2[nH]c3c(c2c1)CCCC3,-10%
1,?,?,Cc1ccc(O)c(C(=O)c2cc(C#N)c(=O)n(-c3nccs3)c2)c1,6%
2,0.6%,1%,Cc1ccc(C(=O)COC(=O)CCC(=O)Nc2cccc(Cl)c2)cc1[N+](=O)[O-],-3%
-4,1.0%,-10%,CN(Cc1ncc[nH]1)Cc1cn(-c2ccccc2)nc1-c1ccc2c(c1)OCO2,-2%
2,0.4%,4%,CCCOc1ccc(C(=O)NCc2cccnc2)cc1,-7%
3,-2.1%,2%,COC(=O)c1nn(-c2ccc3c(c2)OCO3)cc1O,-26%
.,-1.6%,-3%,Cc1ccc(N(CC(=O)NCc2ccc(F)cc2)C(=O)CCC(=O)Nc2ccccn2)cc1C,5%
7,-1.9%,14%,CCCCn1c(CCn2nc(C)c(Br)c2C)n[nH]c1=S,-5%
2,2.0%,14%,Cc1cc(C(=O)N2CCN(CCc3ccccc3)CC2)no1,-10%
.,-0.9%,13%,O=[N+]([O-])c1ccc(-c2nc(NCc3cccnc3)c3ccccc3n2)cc1,-25%
4,-1.6%,-7%,CCOC(=O)N1CCN(C(=O)c2ccc3c(=O)n(-c4ccc(OC)cc4)c(=S)[nH]c3c2)CC1,-3%
-4,-0.6%,2%,CC1Cc2nc(SCC(=O)OCc3ccccc3)n(C)c(=O)c2S1 (configuration not stated),-1%
-2,-2.4%,15%,COc1ccc(S(=O)(=O)N(C)C)cc1NC(=O)CSc1nnc(-c2cccnc2)o1,-7%
-7,-8.3%,15%,O=C(COC(=O)c1ccc2ncsc2c1)NC(=O)c1ccccc1,-9%
.,4.4%,12%,O=C(COC(=O)Cc1ccsc1)Nc1cccc(Cl)c1,.
5,2.4%,10%,O=C(Nc1cnn(Cc2ccc(F)cc2)c1)c1cc(-c2ccco2)on1,-12%
.,3.1%,7%,COc1ccccc1-c1ccc2nnc(SCC(=O)N3CCCC3)n2n1,.
6,?,?,C=CCNC(=O)C(C#N)c1nc2ccccc2nc1N1CCCCCC1 (configuration not stated),-6%
.,?,?,CC1(C)CC(=O)C=C(Nc2ccc(C(=O)O)c(O)c2)C1,0%
9,1.5%,1%,COc1ccccc1CN1CCSCC1,-2%
.,?,9%,COc1cccc(NS(=O)(=O)c2ccc3c(c2)NC(=O)C(C)C(=O)N3)c1 (configuration not stated),1%
.,?,?,C/C(=N\NC(=O)c1ccccc1)c1c(C)[nH]n(-c2ccccc2)c1=O,2%
-1,11%,-1%,Cc1ccccc1NC(=O)Cc1cn(C)c2ccccc12,-14%
7,4.9%,4%,Cc1ccc(NC(=O)C2C(c3ccccc3)C2(Cl)Cl)c(C)c1 (configuration not stated),6%
.,-1.2%,-1%,C[C@H]1CN([C@@H](C)CO)C(=O)c2cccc(NC(=O)Nc3ccc(C(F)(F)F)cc3)c2O[C@@H]1CN(C)S(=O)(=O)c1ccccc1,.
14,1.7%,9%,Cc1cc(C)c(/C=C(\C#N)C(N)=S)c(C)c1,0%
.,6.3%,1%,O=C(C1CCC(CNS(=O)(=O)c2ccccc2)CC1)N1CCCCC1 (configuration not stated),1%
.,-3.0%,1%,NS(=O)(=O)c1ccc(CCNC(=O)c2ccc(C(=O)c3ccccc3)cc2)cc1,1%
-2,-4.6%,-16%,Cc1ccc(/C=c2\sc3nc(-c4ccccc4Br)nn3c2=O)o1,-12%
3,?,?,Cc1ccc(CN2C(=O)N/C(=C/c3cc(C)n(-c4ccccn4)c3C)C2=O)cc1,-19%
-8,-1.4%,1%,Cc1cc(OCC(=O)c2ccc(F)cc2)ccc1N1C(=O)CCC1=O,-3%
-7,?,?,COc1cc(/C=C2\OC(=O)c3c(OC)cccc32)ccc1O,-97%
3,2.7%,1%,O=[N+]([O-])c1ccc(C(=S)N2CCC(Cc3ccccc3)CC2)cc1,0%
-2,-1.9%,1%,O=C(CC(=O)N/N=C/c1ccccc1)NCc1ccccc1,-1%
-20,1.5%,-6%,CCc1ccc2c(c1)/C(=N/OC)C(=O)N2,-8%
.,-2.6%,27%,COc1ccc(C(=O)Nc2nnc(S(=O)(=O)N3CCOCC3)s2)cc1,-4%&-2%
.,?,-21%,O=C(CCc1nc2ccccc2c(=O)[nH]1)Nc1cc(C(F)(F)F)ccc1N1CCOCC1,.
-11,5.9%,1%,N#CC1=C2N=C(N)c3ccccc3N2C2=C(C(=O)CCC2)C1c1ccc(F)cc1 (configuration not stated),-1%
8,-1.0%,-11%,O=C1CC(c2c[nH]c3ccccc23)C(=O)N1 (configuration not stated),1%
1,0.5%,1%,COc1ccc(CNC(=O)COC(=O)/C=C/c2cccs2)cc1,2%
-4&-6,.,.,C[C@@H]1CN(CCCn2c3ccccc3c3ccccc32)C[C@H](C)N1,?
.,-2.7%,-1%,Cc1cc(NC(=O)COC(=O)C2CCN(S(=O)(=O)c3ccccc3)CC2)c([N+](=O)[O-])cc1C,-1%
-15,2.9%,20%,O=C(CSc1n[nH]c(=O)n1C1CC1)N1N=C(c2ccc(Cl)cc2)CC1c1ccco1 (configuration not stated),-13%
-18,-9.4%,24%,O=C(Nc1cccc(Cl)c1)Nc1cc(S(=O)(=O)N2CCOCC2)ccc1N1CCCC1,14%

# (list continues)
GLA inh pH 4.5,Rango-impB inh,Rango release inh,smiles,miR-21 FLuc
1,0.9%,-13%,CCN=C(NCC)SC1CC(=O)N(c2ccc(OC)cc2)C1=O (configuration not stated),-1%
-7,-0.9%,0%,CC(C)(C)SCCNC(=O)Nc1ccccc1,-39%
-17,1.0%,-7%,COc1cc(/C=N/NC(=O)c2ccc(-n3cccc3)cc2)ccc1O,9%
-12,5.0%,2%,CCCCCCNc1nc(NCc2ccco2)nc(OCC)n1,11%
.,1.6%,8%,CC1(C)Cc2c(sc(NC(=O)C(=O)N3CCOCC3)c2C#N)CO1,-3%
-25,0.0%,0%,O=C(NCCCN1CCN(CCCNC(=O)c2cccc([N+](=O)[O-])c2)CC1)c1cccc([N+](=O)[O-])c1,0%
-1,2.4%,1%,NC(=S)Nc1nc2ccccc2s1,-40%
2,-0.4%,-9%,O=C(CN(Cc1ccc2c(c1)OCO2)C(=O)CNC(=O)c1ccco1)NC1CCCCC1,-11%
.,5.0%,-7%,CN(CC(=O)Nc1ccc(N2CCOCC2)cc1)C(=O)c1ccc(O)c(Cl)c1,0%
.,-2.4%,-10%,CC(Oc1ccc(S(=O)(=O)N2CCCC2)cc1[N+](=O)[O-])C(=O)N(C)c1ccccc1 (configuration not stated),.
.,-0.8%,-1%,Cc1noc(C)c1NC(=O)Nc1cccc2c1O[C@@H](CN(C)Cc1ccc3c(c1)OCO3)[C@@H](C)CN([C@H](C)CO)C2=O,.
-6,?,?,CC1(c2ccc(OC(F)F)cc2)NC(=O)N(/N=C/c2c(O)ccc3ccccc23)C1=O (configuration not stated),2%
.,5.7%,0%,Cc1ccc(CNC(=O)c2ccc(CS(=O)(=O)c3ccccc3)o2)cc1,8%
-11,-3.4%,8%,NC(=O)c1nn(-c2ccccc2)c(=O)cc1O,-1%
6,0.2%,2%,CC1(C)N=C(/C=N/O)CN1O,-1%
2,-0.1%,-12%,CC(=O)Nc1cccc2c1OCCO2,-1%
2,1.5%,7%,O=C(O)/C=C\C(=O)Nc1cccc(C(=O)Nc2cccc(O)c2)c1,-26%
2,4.6%,17%,COc1ccc(C(=O)/C=C/C(=O)N(CC(=O)NC2CCCCC2)Cc2ccc(F)cc2)c(O)c1,-6%
.,-5.2%,-2%,COCCn1c(SCC(=O)Nc2cc(C)on2)nnc1C(C)C,1%
4,-1.6%,-15%,CC(C)(/C=N/O)/[N+]([O-])=C/c1ccccc1C(F)(F)F,-2%

# 2 entries drawn at random from those above, as already listed:
GLA inh pH 4.5,Rango-impB inh,Rango release inh,smiles,miR-21 FLuc
.,-5.2%,-2%,COCCn1c(SCC(=O)Nc2cc(C)on2)nnc1C(C)C,1%
-11,-3.4%,8%,NC(=O)c1nn(-c2ccccc2)c(=O)cc1O,-1%

# Back to the main list, repeating the three entries before the break.
GLA inh pH 4.5,Rango-impB inh,Rango release inh,smiles,miR-21 FLuc
2,4.6%,17%,COc1ccc(C(=O)/C=C/C(=O)N(CC(=O)NC2CCCCC2)Cc2ccc(F)cc2)c(O)c1,-6%
.,-5.2%,-2%,COCCn1c(SCC(=O)Nc2cc(C)on2)nnc1C(C)C,1%
4,-1.6%,-15%,CC(C)(/C=N/O)/[N+]([O-])=C/c1ccccc1C(F)(F)F,-2%
.,0.1%,2%,CC1CCCN(CC(=O)NC(=O)NC2CCCCC2)C1 (configuration not stated),.
.,0.4%,-6%,COCCCNC(=O)C1CCC(CNS(=O)(=O)c2ccc3c(c2)CC(C)N3C(=O)C2CC2)CC1 (configuration not stated),-11%
-7,-5.4%,-1%,NC(=O)c1cnn(-c2ccc3ccccc3c2)c1N,-78%
5,0.8%,-6%,CC1=C(C(=O)OCc2ccccc2)C(c2ccc(-c3ccccc3)cc2)NC(=O)N1CCCCCC(=O)O (configuration not stated),-21%
-11,0.8%,-14%,CCNC(=O)COC(=O)CCC(=O)c1ccc(F)cc1,2%
3,-3.1%,2%,CC(C)(C)S(=O)(=O)/C(C#N)=C/Nc1ccccn1,0%
-17,2.4%,-6%,CN(Cc1ccccc1)S(=O)(=O)c1ccc2c(c1)NC(=O)CC(=O)N2,0%
4,-2.4%,3%,Cc1nn(Cc2ccc(F)cc2)c(C)c1NC(=O)c1cc(-c2ccc3c(c2)OCO3)on1,-15%
5,5.4%,7%,Cc1ccc(S(=O)(=O)NC2=NCN(C3CCN(Cc4ccccc4)CC3)CN2)cc1,0%
4,2.6%,5%,Cc1ccc(N(CN2CCCC2=O)C(=O)c2ccc(OC(C)C)cc2)cc1,0%
0,-3.6%,2%,N#C/C(=C\c1c(Cl)cccc1Cl)c1nn(-c2ccccc2)c(-n2cccc2)c1C#N,11%
4,1.9%,-7%,Cc1ccc(C(=O)Nc2ccc(N3CCOCC3)nc2)cc1,-29%
10,-0.3%,9%,COC(=O)CNC(=O)CN1C(=O)N(c2ccc(Cl)cc2)C(N(O)C(=O)Nc2ccc(Cl)cc2)C1(C)C (configuration not stated),-10%
.,-5.0%,-12%,O=C(Cn1c(=O)oc2ccccc21)Nc1ccccc1C(F)(F)F,1%
.,11%,17%,CN(CC(=O)Nc1cccc(F)c1)C(=O)C1=COCCO1,.
-6,-2.3%,-5%,COc1ccccc1NC(=O)CN(C)S(=O)(=O)c1ccc2c(c1)CCC(=O)N2,-6%
4,1.3%,4%,COc1cccc(C(=O)NNC(=O)c2ccccc2-n2cccc2)c1,3%
-5,-2.5%,9%,CCOc1ccccc1N1CCN(Cc2cn[nH]c2-c2ccc(F)cc2)CC1,11%
-4,-1.0%,-4%,COc1ccccc1N1CCN(/N=C\c2ccc(C)o2)CC1,-57%
-2,-4.0%,9%,CCCCOCCCNC(=O)CC(C)c1ccccc1 (configuration not stated),2%
9,0.1%,1%,C/C(CCc1ccccc1)=N/NC(=O)C(=O)NCc1ccccc1,-1%
